Screening data (PubChem)
TRPV1 PAM: HTS Assay for Compounds that Act as Potentiators of the Vanilloid Receptor 1; TRPV1-expressing cells, Fluo-8 calcium influx, capsaicin EC20 potentiation; host cell line not named in the record; control for the full effect not named in the record; potentiation, % at 8.33 µM; 320,000 tested, 0.02% active; active means potentiation above 80%; inconclusive means 30% to 80%; inactive means below 30%; note: 0% is about no effect
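Fluo-8 calcium influx in TRPV1-expressing cells, kinetic read (ex 480/em 520 nm). Compound added and read 3 min for agonist activity, followed by capsaicin at EC20 final and 2 min further read for enhancement.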
D2 PAM: Beta-Arrestin HTS for Positive Allosteric Modulators of the Human D2 Dopamine Receptor: Potentiators; D(2) dopamine receptor (Homo sapiens), P14416; DiscoveRx D2 beta-arrestin cells, luminescence, 90 min; 100% = 57 uM dopamine signal; potentiation, % (test concentration not listed); 360,000 tested, 0.23% active; AID 624464, 2012; active = potentiation of 50% or more; inconclusive = 30% to 50%; inactive = 30% or less;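 note: compound concentration not given in the record; tested on top of an EC20 dose of dopamine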
Target sequence (P14416 whole entry, looked up): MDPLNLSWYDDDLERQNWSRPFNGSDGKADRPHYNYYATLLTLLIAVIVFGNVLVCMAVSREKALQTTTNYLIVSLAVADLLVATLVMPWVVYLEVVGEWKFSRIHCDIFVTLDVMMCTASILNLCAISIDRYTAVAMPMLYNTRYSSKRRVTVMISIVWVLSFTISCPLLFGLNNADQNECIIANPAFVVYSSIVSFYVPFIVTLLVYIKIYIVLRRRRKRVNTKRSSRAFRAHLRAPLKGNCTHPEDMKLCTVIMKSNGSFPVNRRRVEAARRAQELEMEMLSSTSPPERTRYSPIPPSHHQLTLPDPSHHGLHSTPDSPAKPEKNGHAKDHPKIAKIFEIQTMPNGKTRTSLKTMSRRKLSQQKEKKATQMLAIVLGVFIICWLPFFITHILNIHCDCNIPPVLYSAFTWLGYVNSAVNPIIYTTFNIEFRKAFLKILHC
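D2 cells co-treated with compound plus 50 nM dopamine (EC20) for 90 min at 37 deg C to detect potentiation. Beta-arrestin recruitment was read as enzyme-fragment luminescence after 1 h at ambient temperature. Full response was set by 57 uM dopamine.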
ClpP mod: qHTS Assay for Activators of ClpP. ATP-dependent Clp protease proteolytic subunit (Bacillus subtilis (strain 168)), P80244. purified B. subtilis ClpP, FRET peptide cleavage, 20 min. Potency, µM (top dose mostly 57.5 µM), without a hit: top-dose activity change, negative = active. 340,000 tested, 1.9% active; active = well fitted falling curve with a large enough effect; inconclusive = small, poorly fitted or top-dose-only effect; inactive = no such curve, though single readings can be large or run the other way; note: potency is the fitted concentration of half-maximal effect; the source files actives as falling curves though it sought activators and does not explain the sign; nearly all actives have a fitted effect of over 65% in size; many hits overshoot -100%
Target sequence (P80244 whole entry, looked up): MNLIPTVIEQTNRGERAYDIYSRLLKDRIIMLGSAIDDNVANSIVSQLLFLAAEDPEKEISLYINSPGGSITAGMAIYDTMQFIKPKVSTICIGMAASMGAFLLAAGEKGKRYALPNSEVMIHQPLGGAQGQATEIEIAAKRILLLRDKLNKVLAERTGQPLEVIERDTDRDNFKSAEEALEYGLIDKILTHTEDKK
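Purified B. subtilis ClpP, 10 microg/mL final in Tris/HCl pH8 with KCl, BSA, glycerol and Tween-20, cleaved an Abz/nitrotyrosine-quenched decapeptide. Fluorescence (ex 320, em 430) was read at 0 and 20 min at room temperature. Delta was normalized to 5.8 microM ADEP and DMSO/no-enzyme controls.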
Sfp PPTase inh: qHTS Assay for Inhibitors of Bacillus subtilis Sfp phosphopantetheinyl transferase (PPTase). Biochemical Sfp PPTase activity, qHTS. Potency, µM, for inactives: max response, negative = inhibition, hits mostly inhibitors. 310,000 tested, 3.5% active. AID 1490, 2009; active = well fitted inhibition curve with a large enough effect; inconclusive = small, poorly fitted or top-dose-only effect, or another doubt; inactive = no such curve, though single readings can be large or run the other way;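 note: the enzyme is Sfp with the accession as filed and its product quenches rhodamine fluorescence; potency is the fitted concentration of half-maximal effect; 0% = enzyme reaction without inhibitor and -100% = no enzyme wells; top concentration of the series not given in the record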
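After 15 min at room temperature with compound, 15 nM Sfp received 5 uM rhodamine-CoA plus 12.5 uM BHQ-2-ybbR (50 mM Hepes pH 7.6, 10 mM MgCl2). Rate came from the fluorescence difference over 30 min, ex 525/em 598 nm.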
gsp antag: qHTS for Antagonists of gsp, the Etiologic Mutation Responsible for Fibrous Dysplasia/McCune-Albright Syndrome: qHTS. gsp-mutant cells, cAMP HTRF, 30 min; control for the full effect not named in the record. Potency, µM (highest dose often 76.9 µM), inactives show at the top dose activity change, negative = inhibition, most hits filed as inhibitors. 340,000 tested, 0.4% active; active = falling curve of any shape with a large fitted effect; inconclusive = falling curve, mostly with a smaller effect; inactive = flat or rising curve; cell line not stated here;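 note: intracellular cAMP measured with PDE inhibitor Ro 20-1724 present during compound exposure; potency is the fitted concentration of half-maximal effect; % is set by controls: 0 for no effect and ±100 for the full control effect; nearly all actives have a fitted effect of over 65% in size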
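Measurement of cellular cAMP by homogeneous time-resolved fluorescence following a 30 min compound exposure at 37C. The PDE inhibitor […] was present throughout; the assay buffer was DPBS with 0.05% BSA and 0.005% Tween 20.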
gsp ag: qHTS for Agonist of gsp, the Etiologic Mutation Responsible for Fibrous Dysplasia/McCune-Albright Syndrome: qHTS | 340,000 tested, 0.13% active | AID 624287, 2012 | gsp mutant cells, cAMP HTRF, 30 min; control for the full effect not named in the record | Potency, µM (series often up to 76.9 µM), for the others: at the top dose activation (cAMP increase), usual class: activators; active = well fitted activation curve with a large enough effect; inconclusive = small, poorly fitted or top-dose-only effect, or another doubt; inactive = no such curve, though single readings can be large or run the other way; cell line not stated here;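 note: phosphodiesterase inhibitor Ro 20-1724 added with compounds to block cAMP breakdown; potency is the fitted concentration of half-maximal effect; nearly all actives have a fitted effect of over 60% in size; about a fifth of the inactives were tested at one dose only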
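Cells in DMEM/10% FBS with G418 were pretreated with compounds in DMSO plus […] (300 uM stock) for 30 min at 37C. cAMP was measured by HTRF (cAMP-d2 plus anti-cAMP antibody-K) after 30 min at room temperature.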
Menin MLL FP FL: qHTS Assay for Inhibitors Targeting the Menin-MLL Interaction in MLL Related Leukemias: Competition With Fluorescein Labeled MLL-derived Peptide; Fluorescence polarization, fluorescein-MLL peptide displacement from menin; FP activity change, % at 61.4 µM; 290,000 tested, under 10 active; AID 1766, 2009; inconclusive = falling polarisation curve, or a change in total fluorescence; inactive = total fluorescence flat and polarisation flat or rising; no compound was filed as active; the % refers to the polarisation; negative = inhibition;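 note: % of control where 0% means no effect; inhibitors lower the polarisation; unlabelled MLL peptide was the positive control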
* = called active by the depositor; ? = inconclusive; . = no result given; [ ] = remark or other dose.

molecule	gsp antag	Menin MLL FP FL	TRPV1 PAM	gsp ag	Sfp PPTase inh	ClpP mod	D2 PAM
O=C(NC(=S)NNC(=O)c1ccco1)c1ccc(Br)cc1	2%	-10	6	16%	-7%	-2.4%	-19
O=C(C1CCC(CNS(=O)(=O)c2ccc(F)cc2)CC1)N1CCOCC1 (stereo unspecified)	14%	-4.7	-16	-13%[15.4 µM]	3%	.	9
COc1ccc(N2CCN(C(=O)C3CCCN(S(=O)(=O)c4cccc5cccnc45)C3)CC2)cc1 (stereo unspecified)	?	4.6	.	-67%[inhibitor]	16%	-0.7%	0
C=CCOC(=O)C1=C[C@H](c2ccc(Br)cc2)C[C@H](OCCCCO)O1	-1%	.	.	4%	.	1.6%	3
O=C1CCN2C=Nc3cccc4ccc1c2c34	8%	?	-19	?	12%	1.0%	21
Cc1nc(N)sc1-c1csc(Nc2ccc(S(N)(=O)=O)cc2)n1	-22%	8.2	29	1%	-15%	-1.3%	-23
Cc1ccc(S(=O)(=O)N(Cc2ccccc2)c2ccccc2C(=O)NCc2cccnc2)cc1	-7%	4.6	-10	-6%	10%	-4.6%	-11
CCOC(=O)CNC(=S)N(Cc1ccccc1)Cc1cccs1	-8%	2.3	-9	-3%[15.4 µM]	10%	0.3%	-6
O=C(NC1CC1)C1C2C3C4CC5C3C5C4C12 (stereo unspecified)	1%	-0.7	-8	-19%	13%	0.8%	4
Cc1ccccc1Cn1c(CN2CCc3ccccc3C2)nc2c1c(=O)n(C)c(=O)n2C	0%	4.8	-3	3%	11%	-2.6%	-6
O=C(NCCc1c[nH]c2ccccc12)c1cccc(S(=O)(=O)Nc2ccccc2Cl)c1	-27%	-0.7	1	-4%	9%	1.3%	7
NC(=O)COc1c(-c2ccc(Br)o2)oc2ccccc2c1=O	-7%	3.1	10	5%	2%	4.1%	-13
CC(C)CC(NC(=O)c1ccccc1)C(=O)N/N=C/c1ccco1 (stereo unspecified)	8%	0.1	3	7%	-3%	0.9%	-14
Cc1ccc(Cl)c2sc(NC(=O)C3CC3)nc12	7%	-6.1	4	-39%[inhibitor]	-12%	-1.5%	-8
O=C(O)CSc1ncn[nH]1	2%	5.5	-6	-9%	8%	-0.6%	-2
COc1ccc2[nH]c3c(=O)n(CCCN4CCOCC4)cnc3c2c1	8%	4.2	21	24%	-4%	4.5%	-8
Cc1cn(C2OC(COC(=O)c3ccccc3)C(O)C2O)c(=O)[nH]c1=O (stereo unspecified)	1%	3.6	?	7%	8%	-2.3%	26
CCOc1cc(N2CCOCC2)c(OCC)cc1NC(=O)C(C)C	-11%	-3.7	-6	-14%[15.4 µM]	-3%	.	-1
COC(=O)CC(=O)CSc1nc(C)cc(C)c1C#N	-7%	-0.4	4	?	8%	530%	-13
CSCCC(NC(=O)COc1ccccc1)C(=O)N1CCN(c2ccccc2F)CC1 (stereo unspecified)	-10%	-0.7	-6	-89%[inhibitor]	16%	0.5%	-17
CCOC(=O)N=Nc1c(O)n(CC)c2ccccc12	7%	2.7	11	-3%	8%	1.8%	-2
COc1cc(/C=N/NC(=O)CNc2n[nH]c(=O)[nH]c2=O)ccc1OCc1ccccc1	-9%	-1.7	.	-15%[15.4 µM]	6%	.	-1
OCCNCCNCc1ccc(-c2ccccc2)cc1	.	-2.3	-5	.	-1%	.	.
NC(=O)C1CCN(C(=O)c2ccc3c(=O)n(Cc4ccco4)c(SCC(=O)c4ccc(F)cc4)nc3c2)CC1	.	-5.4	7	.	-6%	.	.
CN(C)C(C)(C)/C=C/C(O)(c1ccccc1)c1ccccc1	11%	4.0	-7	-5%	21%	.	-4
O=C(CCn1cnc2ccccc21)N/N=C/c1ccccc1O	-4%	13	17	?	2%	-14%	-2
CCNc1nc(NCC)n2c(SCC(=O)Nc3ccccc3)nnc2n1	2%	-4.1	-1	0%[15.4 µM]	16%	-1.3%	1
CN(CC(=O)Nc1ccc(N2CCOCC2)cc1)C(=O)c1cc2c(s1)CCCC2	-5%	.	-16	2%	.	2.4%	-2
Cc1ccc(CN(C)C(=O)C2CCC(=O)N(C3CCCCCC3)C2)cc1 (stereo unspecified)	-1%	5.6	-18	5%	6%	.	-2
COc1ccc(S(=O)(=O)N(C)CC(=O)N2CCCCCC2)cc1OC	6%	4.3	-4	6%	0%	-1.0%	6
COc1ccc(C(=O)Nc2ccccc2N2CCOCC2)cc1S(=O)(=O)N1CCOCC1	8%	.	-8	?	.	1.5%	4
O=C(O)CCN1C(=O)/C(=C\c2ccc(OCc3ccccc3)c(OCc3ccccc3)c2)SC1=S	?	.	-6	14%	5%	1.3%	-11
COC(=O)c1c(N2C(=O)CC(Sc3ncccc3C(=O)O)C2=O)sc(C)c1C (stereo unspecified)	1%	5.9	5	20%[15.4 µM]	89µM*	.	-1
Fc1ccc2cnc(-c3ccccc3)c(-c3cccc(C(F)(F)F)c3)c2c1	-5%	.	-15	.	.	-17%	-4
S=C(NCc1ccco1)Nc1ccc(Cl)cn1	4%	6.0	-18	2%	-7%	-8.0%	-26
CCn1cc(C(=O)NN)c(=O)c2cc(F)c(N3CCOCC3)cc21	-12%	-5.2	17	27%[15.4 µM]	-2%	0.9%	-2
COc1cc(NC(=O)c2c(F)c(F)c(OC)c(F)c2F)ccc1NC(=O)c1cccs1	-11%	.	1	-30%	10%	-9.3%	-8
Cc1cc2cc(CNS(=O)(=O)c3ccccc3)ccc2n1C	-16%	?	-5	-18%	-20%	-1.1%	12
COC(=O)c1cc(S(=O)(=O)Nc2nn(C)c3cccc(F)c23)oc1C	-4%	2.4	0	-2%[15.4 µM]	12%	-2.5%	1
CC(C)(C)OC(=O)C[C@H]1C/C=C\C[C@@H](CC(=O)N(CCO)Cc2ccccc2)C(=O)NC[C@@H](c2ccccc2)OC1=O	-8%	.	.	-16%	.	-1.1%	-7
Cc1ccc(COc2coc(CN3CCN(C(=O)c4ccco4)CC3)cc2=O)cc1	3%	.	6	12%	.	-2.9%	-12
CCCOc1ccc(OCCNC2CCCC2)cc1	14%	-0.9	9	-13%	-13%	0.9%	-15
S=C(c1ccc(-c2ccc(Cl)cc2)o1)N1CCCCC1	-8%	1.3	-4	9%	20µM*	7.2%	-14
COc1cccc(C(=O)NCC(c2cccnc2)N2CCN(c3ccccc3OC)CC2)c1 (stereo unspecified)	-8%	-0.5	7	?	17%	1.7%	-12
O=C1c2ccccc2C(Nc2ccccc2F)N1c1cccnc1 (stereo unspecified)	5%	2.1	-4	?	1%	-3.0%	-9
O=C(CCNS(=O)(=O)c1ccc(OC(F)(F)F)cc1)N1CCCC1	10%	.	8	-2%	.	0.5%	-1
CCCC1CCc2c(sc(NC(=O)OCC)c2C#N)C1 (stereo unspecified)	0%	-1.2	-41	-6%	-14%	0.1%	-1
O=C(Cn1c(=O)oc2cc(S(=O)(=O)N3CCCCC3)ccc21)N1CCc2ccccc21	10%	0.6	-20	?	29%	-0.1%	-4
CC(C)(C)C(=O)Nc1ccc(C(=O)N/N=C/C2CC3C=CC2C3)cc1 (stereo unspecified)	4%	-0.9	-20	3%	-15%	.	-1
Cc1ccc(Cn2nnc3c(=O)[nH]c(C4CCN(C(=O)c5cccs5)CC4)nc32)cc1	2%	2.5	-2	-4%	-6%	-2.6%	3
COc1ccc(NC(=O)N(C)C[C@H]2Oc3ccc(NS(=O)(=O)c4cccs4)cc3C(=O)N([C@@H](C)CO)C[C@@H]2C)cc1	2%	.	.	?	.	0.5%	-6
COc1cc(/C=C/C(=O)O)cc(S(=O)(=O)NCC2CCCO2)c1OC (stereo unspecified)	2%	-2.2	2	10%[15.4 µM]	30%[activator]	.	-6
COc1ccccc1-n1cnc2cc(NCc3ccccc3O)ccc21	-30%	2.0	2	-11%	-4%	-13%	-11
Cc1ccc(C)c(S(=O)(=O)N2CCCOC2CNC(=O)C(=O)NCCC2=CCCCC2)c1 (stereo unspecified)	-4%	0.8	11	-84%[inhibitor]	20%	-2.4%	-4
CC(C(c1cccs1)c1c(N)n(C)c(=O)n(C)c1=O)[N+](=O)[O-] (stereo unspecified)	5%	-0.8	-2	0%	5%	2.4%	5
CCOC(=O)c1cc(CC)sc1NC(=O)CC1Sc2ccc(C(F)(F)F)cc2NC1=O (stereo unspecified)	10%	0.9	-19	10%	8%	-1.4%	-15

Records above marked active in Sfp PPTase inh.
| Compound | gsp antag | Menin MLL FP FL | gsp ag | Sfp PPTase inh | D2 PAM |
| --- | --- | --- | --- | --- | --- |
| COC(=O)c1c(N2C(=O)CC(Sc3ncccc3C(=O)O)C2=O)sc(C)c1C (stereo unspecified) | 1% | 5.9 | 20%[15.4 µM] | 89µM* | -1 |
| S=C(c1ccc(-c2ccc(Cl)cc2)o1)N1CCCCC1 | -8% | 1.3 | 9% | 20µM* | -14 |
